# NPYLR7 ag = agonists of mosquito NPYLR7 receptor, primary screen, cell-based, Aedes aegypti, calcium fluorescence, mosquito biting behavior; hit rate 0.15% among 270,000; activation, % at 10 µM; HEK293T NPYLR7/Galpha15, GCaMP6s calcium fluorescence; AID 1259423, 2018; in the data active = activation above about 40%;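 also: 0% = vehicle and 100% = reference agonist at the receptor; some compounds past the cut are filed as inactive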
# NPYLR7 ag max-min = also measured in NPYLR7 ag; calls as there; activation, %; measured here: Max-Min RFU normalised activation; some inactives read as strong as hits;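 span of the calcium signal over five minutes; 0% = vehicle and 100% = native peptide agonist; compound fluorescence can raise it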
# The depositor's hits bear a star; & = joins results of further samples. An excerpt. The share of hits here may be higher or lower than overall.
SMILES,NPYLR7 ag,NPYLR7 ag max-min
CC(C)Cc1cc(C(=O)N2Cc3ccccc3CC2C(N)=O)n(C)n1 (centres undefined),8,5
CC(C)NC(=O)c1cc(NC(=O)Nc2ccc(F)c(Cl)c2)ccc1N1CCc2ccccc2C1,2,14
CC(=O)c1ccc(CN2CCC3(CC2)N=C(c2ccccn2)NC3=O)cc1,-5,-9
COc1cc(/C=C/C(=O)N2CCCCCCC2)cc(OC)c1OC,-34,-40
COc1ccc2[nH]c3c(c2c1)CCN(C(=O)c1ccc(OC(F)(F)F)cc1)C3c1ccccc1OC (centres undefined),22,12
Cc1ccccc1OCC(O)CN(Cc1ccccc1)Cc1cccn1Cc1ccc(C(C)(C)C)cc1 (centres undefined),7,17
CCCNC(=O)C1(C)CCN(Cc2cccs2)C1 (centres undefined),-1,-2
COCCN(CCC(=O)NCc1ccco1)c1nc(-c2ccco2)nc2cc(Cl)ccc12,2,10
COc1ccc(-c2nn3c(nc2=O)-c2ccccc2NC3C(C)C)cc1 (centres undefined),13,10
COc1cccc(Oc2ncc(C(N)=O)cc2Cl)c1,9&7,5&7
Cc1cccc(N2CCN(C(=O)c3cc(COc4ccc(F)c(F)c4)on3)CC2)n1,3,-2
CCOC(=O)C1C(C)=NC2=C(C(=O)CC(C)(C)C2)C1c1ccsc1 (centres undefined),9,6
O=C(c1cc(C(F)(F)F)ccc1F)N1CCN(c2nccc(-c3cccc(C(F)(F)F)c3)n2)CC1,13,8
CC1(NC(=O)COC(=O)c2ccccc2NCCc2ccc(Cl)cc2)CCS(=O)(=O)C1 (centres undefined),4,6
COc1cc(-c2cnnc(N3CCCC3c3ccccn3)n2)cc(OC)c1OC (centres undefined),3,1
O=c1[nH]c(CSc2nnnn2C2CCCC2)nc2scc(-c3ccco3)c12,4,4
CC(Nc1cccc(Br)c1)N1C(=O)CCC1=O (centres undefined),-2,-3
COc1cc2[nH]cc(S(=O)(=O)c3ccc(F)cc3)c(=O)c2cc1OC,5,4
CCN(CC)CCn1c2c(c(SCC(=O)N3CCc4ccccc43)nc1=O)CCCC2,-2,4
Cn1ccnc1-c1ccc(N2CCc3nnc(C4CCCO4)n3CC2)nn1 (centres undefined),-3,-5
O=C(c1ccccc1C1CCNC1)N1CCc2ncccc2C1 (centres undefined),-5,-14
CCn1c(C2CC2)nn(CN2CCN(S(=O)(=O)c3ccc4c(c3)OCCO4)CC2)c1=S,-16,-18
CCc1ccc(NC(=O)C2(N(C)C)Cc3ccccc3C2)cc1,7,3
S=C(NCC1CCCO1)NN=Cc1ccc(N2CCOCC2)s1 (centres undefined),0,17

# A draw from above in order of length of the SMILES, rising.
SMILES,NPYLR7 ag,NPYLR7 ag max-min
CC(Nc1cccc(Br)c1)N1C(=O)CCC1=O (centres undefined),-2,-3
S=C(NCC1CCCO1)NN=Cc1ccc(N2CCOCC2)s1 (centres undefined),0,17
COc1cc2[nH]cc(S(=O)(=O)c3ccc(F)cc3)c(=O)c2cc1OC,5,4

# The list continues.
SMILES,NPYLR7 ag,NPYLR7 ag max-min
O=C(CC1C(=O)NCCN1Cc1ccoc1)NCC1(c2ccccc2)CCCC1 (centres undefined),5,4
CCc1nc(-c2c(-c3ccccc3)ncn2[C@@H](C)c2ncccc2C)c(C)[nH]1,3,4
Nc1c(Br)cc(Br)cc1CNC1CCC(O)CC1 (centres undefined),-8&-2&-2,-15&-5&-6
COc1ccccc1CCNC(=O)C(C1CCCC1)N1CCN(C(=O)c2cccs2)CC1 (centres undefined),-7,-2
N[C@@H](Cc1cc(CP(=O)(O)O)cc(-c2ccccc2Cl)c1)C(=O)O,-15,-22
CC(=O)Nc1ccc(Cl)c(C(=O)NC(C)CCN2CCOCC2)c1 (centres undefined),0,6
C=CCOc1ccccc1CN1C(=O)C2(SC(NC(C)=O)=NN2C(C)=O)c2ccccc21 (centres undefined),-2,4
COC(=O)c1ccccc1NC(=O)Cn1ncn2nc(-c3ccccc3)cc2c1=O,-10,-18
COc1cccc(C(=O)N2CCN(c3ccc(-n4cccn4)nn3)CC2)c1OC,7,4
O=C1CCC(CCC(=O)N2CCN(Cc3ccc4c(c3)OCO4)CC2)(Cc2ccc(Cl)cc2)N1 (centres undefined),11,2
CCN(Cc1ccc(C#N)cc1F)C(=O)c1cccc(C)c1,6,1
COC(C)(C(=O)Nc1ccc(F)c(C(N)=O)c1)c1ccccc1 (centres undefined),18,9
CCn1c(SCC(=O)c2cc(C)n(C3CC3)c2C)nnc1-c1ccco1,8,14
O=C(CSc1nnnn1-c1ccccc1)Nc1ccccc1,0,-5
CC(C(=O)O)n1c(O)c(C=C2C=Nc3ccccc32)sc1=S (centres undefined),75*,64*
CCCCCn1cc(C2CCN(C(=O)COc3ccccc3)CC2)c2ccccc21,1,3
Cc1cnc(=O)[nH]c1SCc1ccc(Cl)c(Cl)c1,0,-2
CC(C)OCCC(NN)c1ccccc1 (centres undefined),8,6
O=C1NC(=O)C2(CCCC2CNC(=O)C2(c3ccccc3)CCC2)N1 (centres undefined),0,0
Cc1cnc(C)c(Nc2nc(C(N)Cc3ccc(C(F)(F)F)cc3)cs2)n1 (centres undefined),-8,-11
O=C(Nc1cccc(F)c1)Nc1ccnn1C1CCN(C(=O)c2cc3ccccc3o2)CC1,13,2
CCN1CCN(C(=O)c2cn(CC3CCCO3)cc3c(=O)n(-c4ccccc4)nc2-3)CC1 (centres undefined),-1,-5
O=C(NC1CCCCC1)c1cc(-c2ccccc2F)nn1-c1ccc(Cl)cc1,-2,2
CC(C)(C)NC(=O)N1CCN(c2nc(Cc3ccccc3)nc3c2cnn3-c2cccc(Cl)c2)CC1,-18,-15
CC(NC(=O)CCS(=O)(=O)C1CCCC1)c1ncc(-c2ccccc2)[nH]1 (centres undefined),-6,-8
CC1Cc2cc(-c3cc(CC(=O)NCCc4ccc(S(N)(=O)=O)cc4)no3)ccc2O1 (centres undefined),7,6
CCN(Cc1nc(COC)no1)C(=O)Cc1c[nH]c2ccccc12,22,8
CC1CCc2sc3ncnc(N4CCN(S(=O)(=O)c5ccc(Cl)c(Cl)c5)CC4)c3c2C1 (centres undefined),9,4
COc1ccc(NC(=O)CCC2CCCN(Cc3c(C)nn(C)c3Cl)C2)cc1Cl (centres undefined),-12,-14
CCOC(=O)c1sc(N2C(=O)C(O)=C(C(=O)c3ccco3)C2c2ccc(C(C)(C)C)cc2)nc1C (centres undefined),-7,-13
COc1cc(C#CC#CCN2CCOCC2)ccc1O,-15,-17
N#Cc1ccccc1CN1CCOc2ccc(F)cc21,8,5
Cc1cnc(CNC(=O)CC2CCc3ccccc32)cn1 (centres undefined),5,3
O=C(CN1CN(c2ccccc2)C2(CCN(C(=O)c3cccc(Br)c3)CC2)C1=O)NCc1ccc2c(c1)OCO2,-6,-5
Cc1cccc2[nH]c(C3CCN(C(=O)c4cnn5c4CCCC5)CC3)nc12,0,-2
CCCCN(CC(=O)Nc1cc(-c2ccccc2)nn1-c1ccc(OC)cc1)S(=O)(=O)c1ccc(Br)cc1,9,23
CC(C)CCn1c(CN2CCCC(O)(CO)CC2)nc2ccccc21 (centres undefined),2,-3
O=C(Nc1cccc(Cl)c1F)c1ccc(Br)o1,8,6
CCOC(=O)CCNC(=O)NCc1nnnn1-c1ccc(C)cc1,-5,-5
c1cc2c(cc1-c1ccc(SCCN3CCCCC3)nn1)OCO2,8,0
O=C(c1ccc(-c2ccccc2)c(F)c1)C1CCCN(C(=O)CCc2cnccn2)C1 (centres undefined),-2,-9
COc1cccc(CC(NC(C)=O)C(=O)N2CCN(C)CC2C)c1 (centres undefined),9,5
CC1CCN(S(=O)(=O)N2CCCC(C(=O)NC(C)C)C2)CC1 (centres undefined),20,11
O=C(CCl)N1CCN(S(=O)(=O)c2ccc(F)c(F)c2)CC1,5,3
Cc1ccc(F)c(S(=O)(=O)NC(=O)C2(C)CCN2C(=O)Cc2ccc(-c3ccccc3)cc2)c1 (centres undefined),0,-1
O=C(O)CCCN1CCN([C@H](c2ccccc2)c2ccc(Cl)cc2)CC1,4,19
CSc1ncc(CNCc2cccc(C)c2C)c(N(C)C2CCCCC2)n1,23,27
CCCCCCCCCCc1nnc(NC(=O)CCl)s1,-6,-12

# As a short view, some entries already given:
SMILES,NPYLR7 ag,NPYLR7 ag max-min
O=C(c1ccc(-c2ccccc2)c(F)c1)C1CCCN(C(=O)CCc2cnccn2)C1 (centres undefined),-2,-9
COc1cccc(CC(NC(C)=O)C(=O)N2CCN(C)CC2C)c1 (centres undefined),9,5
CC1CCN(S(=O)(=O)N2CCCC(C(=O)NC(C)C)C2)CC1 (centres undefined),20,11
O=C(CCl)N1CCN(S(=O)(=O)c2ccc(F)c(F)c2)CC1,5,3
Cc1ccc(F)c(S(=O)(=O)NC(=O)C2(C)CCN2C(=O)Cc2ccc(-c3ccccc3)cc2)c1 (centres undefined),0,-1

# New compounds follow.
SMILES,NPYLR7 ag,NPYLR7 ag max-min
Cc1nc(SC(C)C(=O)N2CCCC2)c(C#N)cc1C(=O)Nc1ccccc1 (centres undefined),3,0
COc1ccc(-c2ccc(S(=O)(=O)NCCc3ccccc3)cc2)cc1,0,4
Cc1cccnc1C(=O)N(CC#Cc1ccccc1)CC(C)C,-8,-10
Cc1c(C)n(-c2ccc(Cl)cc2)c2ncnc(N)c12,-7,-6
C=C(C)Cn1c(=O)c2c(nc3n(-c4ccc(C)cc4)c(C)c(C)n23)n(C)c1=O,-2,-2
C=CCn1c(SCc2cccc(C#N)c2)nnc1-c1ccccc1OC,3,6
CC(C)CC(CCC(=O)NC(C)C)C(=O)NC(C)C (centres undefined),-6,-11
CCOC(=O)c1c(NC(=O)c2cccs2)sc(C(=O)Nc2cccc(OC)c2)c1C,9,6

# Quoted from the listing:
# CCOC(=O)c1c(NC(=O)c2cccs2)sc(C(=O)Nc2cccc(OC)c2)c1C @ NPYLR7 ag: 9
# C=C(C)Cn1c(=O)c2c(nc3n(-c4ccc(C)cc4)c(C)c(C)n23)n(C)c1=O @ NPYLR7 ag max-min: -2
# Cc1c(C)n(-c2ccc(Cl)cc2)c2ncnc(N)c12 @ NPYLR7 ag: -7
# C=CCn1c(SCc2cccc(C#N)c2)nnc1-c1ccccc1OC @ NPYLR7 ag max-min: 6
# Cc1nc(SC(C)C(=O)N2CCCC2)c(C#N)cc1C(=O)Nc1ccccc1 (centres undefined) @ NPYLR7 ag: 3
# Cc1cccnc1C(=O)N(CC#Cc1ccccc1)CC(C)C @ NPYLR7 ag max-min: -10

# Next section:
SMILES,NPYLR7 ag,NPYLR7 ag max-min
C=CCN(CC(=O)N1CCc2sccc2C1COc1ccc(C)cc1C)C(=O)c1ccco1 (centres undefined),-2,5
CCn1c(SCC(=O)N/N=C\c2cc(Br)ccc2O)nc2ccccc21,1,6
COc1cc(OC)cc(N2CCC(N(C)CC(F)F)C2)c1 (centres undefined),0,-1
COc1ccc(C(=O)O)cc1Oc1nc(Cc2ccccc2)ns1,14,10
Cc1ccc(C(=O)N2CCN(c3nc(C(C)C)nc4sc(C)c(C)c34)CC2)cc1[N+](=O)[O-],14,15
CCC(CC)O[C@@H]1C=C(C(=O)OC)C[C@H](N)[C@H]1NC(C)=O,-5,-6
CCOc1cccnc1C(=O)Nc1ccc2c(c1)n(C)c(=O)n2C,-3,-3
Cc1cc(=O)[nH]c(NCCNCC(=O)Nc2ccc(Cl)c(C)c2)n1,3,3
O=C1CC(NCc2ccccc2Cn2cccn2)CN1Cc1ccc(F)cc1 (centres undefined),4,1
COc1ccc(CNC(=O)Cn2nc3c(N4CCN(c5ccccc5C)CC4)nccn3c2=O)cc1,-5,-6
Cc1cn2c(C(=O)N(C)CC3CCCN(CCc4ccccc4F)C3)csc2n1 (centres undefined),-3,-6
Cc1ccc(-n2c(N)cc(=O)nc2SCC(=O)N2CCCc3ccccc32)cc1,-3,-4
CCCn1c(=O)c2c(nc3n(-c4cc(C)ccc4C)c(C)cn23)n(C)c1=O,-1,3
CN(Cc1ccc(-n2ccnc2)cc1)Cc1ncc[nH]1,-1,-10
O=C(CCC1CCN(C(=O)c2ccsc2)CC1)NCc1cccc(C(F)(F)F)c1,2,-5
CCCCS(=O)(=O)NC(=O)C1(C)CCN1C(=O)C1(c2ccccc2)CC1 (centres undefined),6,3
COCCN(Cc1ccc(C(O)(CC2CCC2)CC2CCC2)o1)Cc1cccs1,11,12
COc1cccc(CNC(=O)c2ccc(-c3cccc(Cl)c3)s2)c1OC,-5,2
O=C(NC1CCCCCC1)N1CCN(C(c2ccccc2)c2ccc(Cl)cc2)CC1 (centres undefined),25,25
O=C(c1ccc(Cl)cc1)N(CC(=O)N1CCc2sccc2C1c1ccc(F)cc1)C1CC1 (centres undefined),-8,1
CC(=O)N[C@H]1C[C@@H](C2(C)CCN(C)CC2)O[C@@H](C(C)(C)C)C1,-1,1
CN(C)S(=O)(=O)c1ccc(CNC(=O)N2CCN(Cc3ccsc3)CC2)s1,1,-1
COc1ccc(C)cc1NC1CCCN(C(=O)Cc2ccccc2)C1 (centres undefined),-2,3
C=CC[C@@H]1CC=C[C@@H](C)N1C(=O)Cn1ccnc1CC,21,10
COc1ccc(F)cc1CN1C(=O)CC(C)(c2ccsc2)C1=O (centres undefined),0,7
CCc1ccc(-c2csc(CC(=O)N3CCOCC3)n2)s1,1,18
CCC(C)NC(=O)c1cc(NC(=O)c2ccc(Cl)cc2)ccc1N1CCN(c2ccccc2OC)CC1 (centres undefined),3,4
COc1cc(Nc2nccc3[nH]c(-c4ccc(C(=O)N(C)C)cc4)cc23)cc(OC)c1OC,-1,-8
O=C(NCc1noc(Cc2ccccc2)n1)c1cccc2ccnn12,25,10
COc1ccc(-c2nc3ccc(C)cn3c2NC(=O)C23CC4CC(CC(C4)C2)C3)cc1OC,-3,5
COc1cc(-c2cc(C(F)(F)F)n3ncc(C(=O)Nc4ccc(O)cc4)c3n2)cc(OC)c1OC,9,9

# Source: PubChem BioAssay (Fisher Drug Discovery Resource Center)
